Screening results from PubChem.
TRPML1 ag = qHTS for Agonists of the Human Mucolipin Transient Receptor Potential 1 (TRPML1) | TRPML1-expressing cells, Ca2+ dye fluorescence, FDSS; host cell line not named in the record; reference of the full effect not given here | activation, % (concentration not given with the values) | 0.12% of 410,000 active; in the data active = activation above about 50%; inconclusive = about 30% to 50%; inactive = below about 30%; further: 0% is about no effect; the text of the record puts the active cut at 80%
Target sequence (Q9GZU1 whole entry, looked up): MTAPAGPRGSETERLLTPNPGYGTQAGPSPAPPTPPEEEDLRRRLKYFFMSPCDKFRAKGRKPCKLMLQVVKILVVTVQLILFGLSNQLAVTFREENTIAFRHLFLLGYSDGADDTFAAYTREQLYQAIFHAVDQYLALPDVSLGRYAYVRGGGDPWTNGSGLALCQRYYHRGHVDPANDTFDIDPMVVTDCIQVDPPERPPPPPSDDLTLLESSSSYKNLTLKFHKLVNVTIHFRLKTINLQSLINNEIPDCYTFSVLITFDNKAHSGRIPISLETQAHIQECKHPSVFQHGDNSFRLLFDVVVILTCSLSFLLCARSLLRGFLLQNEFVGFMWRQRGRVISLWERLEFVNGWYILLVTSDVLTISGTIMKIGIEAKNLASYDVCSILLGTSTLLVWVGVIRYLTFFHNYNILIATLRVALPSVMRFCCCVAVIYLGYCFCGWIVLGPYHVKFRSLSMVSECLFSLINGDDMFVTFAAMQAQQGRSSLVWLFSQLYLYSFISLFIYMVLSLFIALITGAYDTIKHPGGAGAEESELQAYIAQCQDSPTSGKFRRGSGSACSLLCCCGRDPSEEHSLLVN
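Agonist activity was taken from a 110 s kinetic Ca2+ dye read on the FDSS after pinning compounds onto TRPML1-DL cells. The cells were seeded at 1,500/well with Tet inducer, incubated about 16 h, then dye-loaded at room temperature.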
gsp agonist = qHTS for Agonist of gsp, the Etiologic Mutation Responsible for Fibrous Dysplasia/McCune-Albright Syndrome: qHTS. gsp mutant cells, cAMP HTRF, 30 min; control for the full effect not named in the record. Potency, µM (top dose mostly 76.9 µM), inactives show top-dose activation (cAMP increase), most hits filed as activators. 0.13% of 340,000 active. AID 624287, 2012; active = well fitted activation curve with a large enough effect; inconclusive = small, poorly fitted or top-dose-only effect, or another doubt; inactive = no such curve, though single readings can be large or run the other way; cell line not stated here;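 further: phosphodiesterase inhibitor Ro 20-1724 added with compounds to block cAMP breakdown; potency means the concentration at half of the fitted maximal effect; nearly all actives have a fitted effect of over 60% in size; about a fifth of the inactives were tested at one dose only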
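Cells in DMEM/10% FBS with G418 were pretreated with compounds in DMSO plus […] (300 uM stock) for 30 min at 37C. cAMP was measured by HTRF (cAMP-d2 plus anti-cAMP antibody-K) after 30 min at room temperature.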
TRPML1 inh = qHTS for Inhibitors of the Human Mucolipin Transient Receptor Potential 1 (TRPML1); Mucolipin-1 (Homo sapiens), Q9GZU1; TRPML1-inducible cells, Ca2+ dye fluorescence, FDSS; active compounds read low; inhibition of EC80 agonist-evoked calcium signal; activity change, negative = inhibition, % (test concentration not listed); 0.02% of 390,000 active; AID 624415, 2012; in the data active means activity change below about -50%; inconclusive means about -30% to -50%; inactive means above about -30%;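 further: stimulus is agonist 54-4 at its EC80 concentration; on the % scale 0 is the no-effect control and ±100 the full control effect; compound concentration not given in the record; the text of the record puts the active cut at -80%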
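Tet-induced TRPML1-DL cells loaded with Ca8 no-wash calcium dye were read kinetically on FDSS. Compound addition was followed by EC80 agonist 54-4 (4 uM final); inhibition was read over 110 s.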
ClpP mod = qHTS Assay for Activators of ClpP; ATP-dependent Clp protease proteolytic subunit (Bacillus subtilis (strain 168)), P80244; purified B. subtilis ClpP, FRET peptide cleavage, 20 min; Potency, µM (titrated, usually from 57.5 µM), for inactives: at the top dose activity change, negative = active; 1.9% of 340,000 active; AID 651965, 2013; active = well fitted falling curve with a large enough effect; inconclusive = small, poorly fitted or top-dose-only effect; inactive = no such curve, though single readings can be large or run the other way; further: potency means the concentration at half of the fitted maximal effect; the source files actives as falling curves though it sought activators and does not explain the sign; nearly all actives have a fitted effect of over 65% in size; many hits overshoot -100%
Target sequence (P80244 whole entry, looked up): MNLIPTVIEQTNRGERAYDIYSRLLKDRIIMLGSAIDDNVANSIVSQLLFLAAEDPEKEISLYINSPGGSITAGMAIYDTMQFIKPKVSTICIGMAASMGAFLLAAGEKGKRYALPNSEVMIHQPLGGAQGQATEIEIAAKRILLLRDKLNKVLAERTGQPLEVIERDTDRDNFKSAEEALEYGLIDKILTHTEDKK
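Buffer: 100 mM Tris/HCl pH8, 100 mM KCl, 0.05% low protease BSA, 2.5% glycerol, 0.01% Tween-20. ClpP 10 microg/mL final; 20 min RT; delta FRET normalized to ADEP and DMSO controls.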
gsp antag = qHTS for Antagonists of gsp, the Etiologic Mutation Responsible for Fibrous Dysplasia/McCune-Albright Syndrome: qHTS; gsp-mutant cells, cAMP HTRF, 30 min; control for the full effect not named in the record; 0.4% of 340,000 active; AID 624288, 2012; Potency, µM (highest dose often 76.9 µM), without a hit: top-dose activity change, negative = inhibition, hits mostly inhibitors; active = falling curve of any shape with a large fitted effect; inconclusive = falling curve, mostly with a smaller effect; inactive = flat or rising curve; cell line not stated here;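 further: intracellular cAMP measured with PDE inhibitor Ro 20-1724 present during compound exposure; potency means the concentration at half of the fitted maximal effect; on the % scale 0 is the no-effect control and ±100 the full control effect; nearly all actives have a fitted effect of over 65% in size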
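Measurement of cellular cAMP by homogeneous time-resolved fluorescence following a 30 min compound exposure at 37C. The PDE inhibitor […] was present throughout; the assay buffer was DPBS with 0.05% BSA and 0.005% Tween 20.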
Menin-MLL FL inh = qHTS Assay for Inhibitors Targeting the Menin-MLL Interaction in MLL Related Leukemias: Competition With Fluorescein Labeled MLL-derived Peptide; AID 1766, 2009; 290,000 tested, under 10 active; Fluorescence polarization, fluorescein-MLL peptide displacement from menin; FP activity change, % at 61.4 µM; inconclusive = falling polarisation curve, or a change in total fluorescence; inactive = total fluorescence flat and polarisation flat or rising; no compound was filed as active; the % refers to the polarisation; negative = inhibition;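 further: % of control where 0% means no effect; inhibitors lower the polarisation; unlabelled MLL peptide was the positive control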
* hit, by the source's call; ? = inconclusive; / = no result given; & = joins results of further samples; [ ] = dose if it differs, or a comment.

smiles,TRPML1 ag,gsp agonist,TRPML1 inh,ClpP mod,gsp antag,Menin-MLL FL inh
CCc1cc(CNC(=O)CC2C(=O)NCCN2Cc2ccc(-c3ccccc3)cc2)on1 (stereo not drawn),-0.5,-9%,17,-8.7%,-6%,-4.8
COc1ccc2c(c1)cc1c(=O)n(CC(=O)NCCc3ccccc3)nc(C)n12,-0.2,/,8,-19%,/,/
CCN1CCCC1CNC(=O)c1cc(NC(C)=O)c(N(C)C)cc1OC (stereo not drawn),-0.4,-19%,15,-5.1%,-1%,0.9
O=C(NNS(=O)(=O)c1ccccc1)c1sccc1-n1cccc1,-0.6,-4%,5,-0.3%,6%,2.2
COc1ccc(C)cc1N(C)C(=O)c1coc(=O)c2ccccc12,3.0,-40%[inhibitor],-2,-3.5%,-3%,2.6
O=S(=O)(/C=C/c1ccccc1)n1cnc2ccccc21,1.1,-4%,20,0.2%,-4%,1.3
CCc1ccc(OCC(=O)Nc2ccc(-c3nc4ncccc4o3)cc2)cc1,-0.8,/,45,4.2%,/,/
COc1ccc(CCN(C)CC(=O)Nc2c(C)cc(C)cc2C)cc1OC,0.6,-20%,-13,-2.9%,9%,1.9
C=C1c2c(Cl)ccc(O)c2C(O)=C2C(=O)[C@]3(O)C(O)=C(C(N)=O)C(=O)[C@@H](N(C)C)[C@@H]3[C@@H](O)C12 (stereo partly drawn),0.0,/,-8,4.6%,-6%,/
CC1(c2ccc(Cl)cc2)NC(=O)N(CC(=O)NCc2cccs2)C1=O (stereo not drawn),0.4,-64%[inhibitor],1,-3.3%,2%,2.0
C=CCSc1nc2ccccc2n1C(=O)/C=C/c1cc(OC)c(OC)c(OC)c1,0.8,13%,-4,15%,10%,4.4
C=CC[C@H](CC(=O)OC(C)(C)C)C(=O)OC[C@@H]1CCCN1C(=O)[C@H](CC=C)CC(=O)N[C@H](CO)Cc1ccccc1,0.4,?,-20,0.8%,-16%,/
O=S1(=O)NC[C@]23C[C@H](c4ccc(F)cc4)[C@@H](C[C@@H]21)O3,0.2,7%,11,-1.8%,4%,5.0
COc1cccc(N2CCN(Cc3nc(N)nc(Nc4ccccc4)n3)CC2)c1,-0.1,-1%,3,-1.2%,-5%,1.5
CN1C(=O)[C@H]2[C@@H](C3CC3)N3C(=O)CN(CC4CC4)C(=O)[C@@]3(C)[C@H]2C1=O,-0.6,-2%,4,-0.5%,-9%,0.8
CN1CCN(C(=S)Nc2cccc(C(F)(F)F)c2)CC1,-0.1,-14%,38,-0.5%,-2%,2.0
O=C(O)[C@H]1CCC(=O)N1Cc1ccco1,0.4,8%,2,-0.6%,21%,-1.9
CCCOC(=O)c1c(NC(=O)C2C3C=CC(C3)C2C(=O)O)sc2c1CCC(C)C2 (stereo not drawn),1.2,-11%,-9,2.8%,-20%,0.6
C/C(CC(=O)NC(C)C)=N\NC(=O)C(c1ccccc1)c1ccccc1,-0.4,-2%,9,/,-7%,3.8
CCN(CC)CCN(C(=O)c1ccc(S(=O)(=O)N(C)C2CCCCC2)cc1)c1nc2ccc(OC)cc2s1,-0.2,7%,1,-2.2%,-4%,/
O=C(COc1ccccc1)Nc1ccccc1OCc1cc(=O)n2ccccc2n1,0.3,/,-18,-8.6%,/,/
CCOc1ccc(NC(=O)CN(C)C(=O)Cn2c(=O)cnc3ccccc32)cc1OCC,-0.6,-32%[inhibitor],7,2.5%,0%,/
O=C(CS(=O)(=O)Cc1ccccc1)NCc1ccco1,-0.6,-12%[15.4 µM],-12,/,7%,4.4
CN1OC[C@@H]2CN(S(=O)(=O)c3cccc(C(F)(F)F)c3)[C@H](c3ccc(-c4cccnc4)cc3)C[C@@H]21,-0.2,-36%[inhibitor],13,-2.4%,/,/
O=C(NCCN1CCOCC1)c1cc2c(=O)n3ccccc3nc2n1Cc1ccccc1,0.8,?,4,?,-1%,0.5

smiles,TRPML1 ag,gsp agonist,TRPML1 inh,ClpP mod,gsp antag,Menin-MLL FL inh
N/C(=N\OC(=O)c1ccccc1Cl)c1ccc(Cl)cc1,-0.1,?,3,-5.1%,-3%,-4.4
Cc1cccc(NC(=O)NCC2CC2)c1,-0.9,?,-5,/,1%,-2.4
Nc1c(C(=O)NCc2ccc(Cl)cc2)sc2nc(-c3ccc(F)cc3)ccc12,1.1,/,-3,-11%,/,/
COc1cc(C)c(Cl)cc1S(=O)(=O)n1cnc2ccccc21,-0.5,-4%,4,-0.3%,-18%,1.9
Cc1cc(N)n(-c2ccc(Cl)cc2)n1,1.3,10%[15.4 µM],12,/,1%,-0.2
O=C(CSc1nnc(NC(=O)c2ccco2)s1)Nc1ccc2c(c1)OCCO2,-0.6,-3%,-6,/,?,-0.8
Cc1ccc(C)c(S(=O)(=O)N2CCCC2CNC(=O)C(=O)NCc2ccccn2)c1 (stereo not drawn),1.6,13%[15.4 µM],10,/,-4%,/
Cc1ccccc1N(C(=O)CNC(=O)c1cccs1)C(C(=O)NC1CCCC1)c1ccncc1 (stereo not drawn),0.2,10%[15.4 µM],-4,/,2%,-6.1
CC(=C/C(=O)O)/C=C/c1cccs1,0.5,9%,-14,-0.9%,-3%,-1.7
Cc1cccc(OCC(=O)NCC(C)(C)N2CCOCC2)c1,-0.4,?,43,-0.6%,-3%,/
CCOC(=O)c1cnc(SCC(=O)N2CCC(C(N)=O)CC2)nc1N,-0.8,1%[15.4 µM],21,-1.1%,10%,1.3
CC(=O)OCc1c(C(F)(F)F)nn(C)c1Sc1ccccc1,2.0,28%,-10,4.2%,-11%,10
CN(CC(=O)OCC(=O)Nc1ccccc1)S(=O)(=O)c1ccc(Cl)cc1,2.1,1%,7,0.7%,-15%,-2.6
Cc1ccc2c(=O)c(C(=O)c3ccccc3)cn(CC(=O)Nc3ccccc3)c2n1,0.4,/,14,-11%,/,/
O=C(CSc1nnc(CNC(=O)c2cccc(C(F)(F)F)c2)o1)NC1CCCCC1,-0.3,-6%,-9,1.2%,6%,2.8
Cc1occc1C(=O)Nc1sccc1C(N)=O,-0.7,?,4,-2.6%,4%,/
N#CC(c1ccc(N)cc1)C(CC(=O)c1ccccc1)c1ccccc1 (stereo not drawn),-0.1,-56%[inhibitor],0,2.0%,/,/
Cc1c(C)c(C)c(S(=O)(=O)N2CCC3(CC2)OCCO3)c(C)c1C,-0.2,-2%,-21,-0.3%,-1%,/
Cc1nn(Cc2ccccc2)c(C)c1C(=O)NCC(c1cccs1)N1CCOCC1 (stereo not drawn),-0.9,-25%,-11,-2.3%,-2%,/
O=C(Cc1ccccc1)NCCc1ccc(Cl)cc1Cl,-0.4,-11%[15.4 µM],-11,0.0%,21%,0.7
COc1ccc(Cl)cc1NC(=O)Cn1nnc(C(=O)NCc2ccc3c(c2)OCO3)c1N,0.5&-0.7,20%,-6&3,-1.5%&1.8%,4%,3.5
CC(=O)c1cccc(S(=O)(=O)NCC(C)(C)N2CCOCC2)c1,-0.2,26%,-3,/,2%,0.6
COc1cccc(NC(=O)N(C)C[C@H]2Oc3cc(C#Cc4ccncc4)ccc3S(=O)(=O)N([C@H](C)CO)C[C@H]2C)c1,0.2,5%,-6,0.2%,/,/
Cc1ccc(CN2CCc3nc(N4CCN(c5ccccc5F)CC4)ncc3C2)s1,-0.5,/,-3,-30%,/,/
Cc1cc(CNC(=O)c2cc(COc3ccc(F)c(F)c3)on2)nn1C,0.3,-29%,11,-2.0%,-3%,0.6

smiles,TRPML1 ag,gsp agonist,TRPML1 inh,ClpP mod,gsp antag,Menin-MLL FL inh
O=C(CN(C(=O)CCC(=O)Nc1nccs1)c1ccc(F)cc1)NCCc1ccccc1,1.0,-2%[15.4 µM],4,/,7%,3.3
N#Cc1cccc(NC(=O)COC(=O)c2ccccc2Sc2ccccc2C#N)c1,0.8,?,-5,5.5%,-16%,-0.5
CCC1Oc2ccccc2N(CC(=O)NCc2ccccc2)C1=O (stereo not drawn),-0.3,/,-15,0.3%,/,/
COc1ccc(CCNC(=O)CCn2c(=O)c3ccccc3n(CC(=O)Nc3cc(Cl)ccc3C)c2=O)cc1OC,0.6,/,-6,0.0%,/,/
CNC(=O)CSc1nnc(-c2ccco2)n1-c1cccc(OC)c1,0.3,-12%,21,-0.6%,-17%,-1.0
CCOC(=O)c1cc2c(=O)n3ccccc3nc2n(Cc2ccco2)c1=NC(=O)c1cccc(OC)c1,6.9,45%[15.4 µM],11,/,?,?
O=C(Cn1c(=O)n(CC2CCCO2)c(=O)c2ccccc21)c1ccccc1 (stereo not drawn),0.7,17%,-1,0.4%,-1%,4.2
CN(C)S(=O)(=O)c1cccc(NC(=O)CCCSc2ccccc2)c1,2.7,0%[15.4 µM],18,/,-11%,-0.5
COc1ccc(NC(=O)C2CCCN2S(=O)(=O)c2cccc3cccnc23)c(OC)c1 (stereo not drawn),-0.2,9%,0,-1.8%,-2%,-2.0
Cc1cc(C)c2c(CN3CCN(Cc4ccc5c(c4)OCO5)CC3)cc(=O)oc2c1,1.1,-26%,-5,-2.0%,-1%,1.8
COc1ccc(Cl)cc1N1CC(C(=O)Nc2nccs2)CC1=O (stereo not drawn),-0.4,-21%,29,-1.0%,5%,-0.6
CN(Cc1cccs1)C(=O)CCc1c[nH]c2ccccc12,-0.2,-7%,0,-4.0%,-1%,1.3
CCCCN(C(=O)CSc1nncn1-c1ccccc1OC)c1c(N)n(Cc2ccccc2)c(=O)[nH]c1=O,-0.1,-26%,-2,1.5%,-9%,-5.0
CC(C)Sc1sc(C(=O)O)c(-c2ccc(Cl)cc2)c1C#N,-0.6,3%[15.4 µM],29,-24%,?,-2.7
COc1ccccc1C(=O)NCCC(=O)N(C)CC(=O)Nc1c(Cl)cccc1Cl,1.5,17%,60,-3.6%,3%,/
COc1ccc(CCNC(=O)c2ccc3c(c2)CCN3S(=O)(=O)c2ccccc2)cc1,4.2,/,-7,0.2%,/,/

Profiles, looked up by structure:
Listed for N#Cc1cccc(NC(=O)COC(=O)c2ccccc2Sc2ccccc2C#N)c1 = TRPML1 ag = 0.8; gsp agonist = ?; TRPML1 inh = -5; ClpP mod = 5.5%; gsp antag = -16%; Menin-MLL FL inh = -0.5
Listed for CCCCN(C(=O)CSc1nncn1-c1ccccc1OC)c1c(N)n(Cc2ccccc2)c(=O)[nH]c1=O = TRPML1 ag = -0.1; gsp agonist = -26%; TRPML1 inh = -2; ClpP mod = 1.5%; gsp antag = -9%; Menin-MLL FL inh = -5.0
